PERK inh – human PERK inhibition, primary cell-based screen; CHO PERK-DD fusion, SEAP luminescence translation reporter; 220,000 compounds, 0.17% hits; inhibition, % at 5.6 µM; Q9NZJ5;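 active = inhibition above the mean inhibition of all tested compounds plus 3 SD, set separately per screening campaign, cut at about 2.9% in these data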;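 note: PERK kinase domain activated by AP20187 dimerizer at 100 nM; 0% = DMSO with dimerizer and 100% = rapamycin at 8.4 µM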
Target sequence (Q9NZJ5 whole entry, looked up, the tested form may be a part): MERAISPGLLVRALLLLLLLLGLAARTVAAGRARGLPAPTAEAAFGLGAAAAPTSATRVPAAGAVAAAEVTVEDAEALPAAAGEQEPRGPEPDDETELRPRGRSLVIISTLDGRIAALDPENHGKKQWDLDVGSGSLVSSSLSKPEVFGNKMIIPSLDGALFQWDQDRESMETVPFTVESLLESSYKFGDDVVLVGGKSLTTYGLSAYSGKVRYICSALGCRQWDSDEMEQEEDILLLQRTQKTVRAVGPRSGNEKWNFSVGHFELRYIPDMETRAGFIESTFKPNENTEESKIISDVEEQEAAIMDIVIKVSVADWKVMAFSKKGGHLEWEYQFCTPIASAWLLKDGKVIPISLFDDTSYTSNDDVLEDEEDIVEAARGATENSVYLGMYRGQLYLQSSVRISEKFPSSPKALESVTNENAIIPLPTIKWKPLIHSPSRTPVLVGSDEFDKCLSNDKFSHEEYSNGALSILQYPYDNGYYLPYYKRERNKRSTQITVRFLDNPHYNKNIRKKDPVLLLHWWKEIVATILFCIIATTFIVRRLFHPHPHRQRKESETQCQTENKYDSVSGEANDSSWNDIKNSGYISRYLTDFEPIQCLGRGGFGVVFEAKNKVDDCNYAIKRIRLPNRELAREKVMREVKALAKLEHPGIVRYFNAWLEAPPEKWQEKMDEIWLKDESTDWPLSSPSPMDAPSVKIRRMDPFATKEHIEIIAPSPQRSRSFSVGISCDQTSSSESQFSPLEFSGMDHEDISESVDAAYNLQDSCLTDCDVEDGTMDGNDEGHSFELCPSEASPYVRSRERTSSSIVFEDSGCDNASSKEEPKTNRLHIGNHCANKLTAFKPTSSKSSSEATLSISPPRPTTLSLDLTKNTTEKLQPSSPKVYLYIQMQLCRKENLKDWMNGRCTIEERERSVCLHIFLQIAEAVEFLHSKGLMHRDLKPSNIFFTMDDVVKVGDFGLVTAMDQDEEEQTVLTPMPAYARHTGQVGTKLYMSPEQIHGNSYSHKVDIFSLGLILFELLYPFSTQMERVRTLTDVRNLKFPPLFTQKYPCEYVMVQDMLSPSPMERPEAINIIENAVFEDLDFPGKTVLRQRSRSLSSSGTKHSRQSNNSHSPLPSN
KLK5 inh – blocks human kallikrein 5 protease activity; Q9Y337; recombinant hK5, fluorogenic AMC substrate cleavage; inhibition, % at 5 µM; AID 873; 210,000 compounds, 0.59% hits;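 active = inhibition of 40% or more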;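 note: 0% = enzyme controls without compound and 100% = no-enzyme blanks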
KCC2 mod – KCC2 (human) Cl- transport modulation. B-score of Tl+ flux slope (higher = more flux/activation; lower = inhibition) at 10 µM. Q9H2X9. 190,000 compounds, 2.2% hits. KCC2 cells, thallium flux FluoZin-2 fluorescence;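 active = thallium flux slope and its plate-corrected score both differing from the plate sample mean at a set confidence after two filtering rounds, in either direction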;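 note: slope of fluorescence scaled to starting intensity during 10 to 20 s after thallium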
thrombin 1536 – thrombin (human) inhibition; P00734; alpha-thrombin, Boc-VPR-AMC fluorogenic substrate cleavage; inhibition, % at 5 µM; 220,000 compounds, 0.26% hits; AID 1046;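 active = inhibition at or above 40%; inactive = inhibition below 40%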;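 note: 0% = enzyme with no compound and 100% = wells without enzyme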
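System: Human alpha-thrombin protein | Medium: pH 7.5 Tris (50 mM) with NaCl 150 mM, Tween 20 0.05% | Times: Enzyme reaction carried out at room temperature | Detection: AMC fluorescence, 355/460 nm | Evaluation: Percent inhibition scaled between no-compound controls and no-enzyme blanks | Benchmarks: Enzyme without compound as high, wells lacking enzyme as low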
Furin inh – inhibitors of human furin | purified furin, fluorogenic substrate cleavage | inhibition, % at 30 µM | 220,000 compounds, 0.061% hits | AID 463115; in the data active = inhibition above about 25%; note: inactives centre near -15
Rad51 HR inh – Rad51 (human) homologous recombination inhibition. hRad51 DNA strand exchange, fluorescence dequenching. inhibition, % at 10 µM. 200,000 compounds, 0.085% hits;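 active = inhibition above 40% at the single screening dose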;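 note: 0% = DMSO control wells and 100% = blanks with heterologous ssDNA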
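Test system: preformed human Rad51 ssDNA filaments; also added: Donor/quencher-labelled 47-bp dsDNA substrate; doses: 10 µM final, single point; times: 37 °C 15-min filament assembly, 30-min compound preincubation, 15-min exchange; detection: FRET fluorescence dequenching, excitation 485 nm, emission 520 nm; read-out basis: Fluorescence-based percent inhibition, control- and blank-normalised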
m-calpain inh – calpain II (pig) inhibition | purified calpain II, fluorogenic peptide substrate, 30 min | 220,000 compounds, 0.37% hits | inhibition, % at 16 µM | AID 1236;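 active = inhibition above about 50%, limit read from the data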
The depositor's hits bear a star; i = inactive; · = no result given; [ ] = remark or other dose.

SMILES	PERK inh	KLK5 inh	KCC2 mod	thrombin 1536	Furin inh	Rad51 HR inh	m-calpain inh
O=C1OC(c2ccc(F)cc2)=N/C1=C\c1ccc(Br)o1	0.5	1	-0.18	0	-32	-4	-14
COc1ccccc1C(=O)Oc1cc(N)n(S(=O)(=O)c2ccccc2)n1	0.1	-25	-0.78	-3	-20	-11	13
O=C(CN1CCN(C(=O)c2ccccc2)CC1)Nc1ncc(Br)cc1Br	0.5	-7	-0.027	-7	-15[20 µM]	·	10
O=C(O)c1cc2ccc3ccccc3c2oc1=O	0.7	-46	-0.068	-13	-9[20 µM]	-8	i
COc1ccc(/C=C2\Sc3ccc(C(=O)N4CCc5ccccc5C4)cc3N(C)C2=O)cc1	-1.6	-5	-0.53	-7	-7	7	-23
O=C(COc1ccccc1[N+](=O)[O-])N/N=C/c1ccc(OC(=O)c2ccco2)cc1	1.2	-7	1	-6	-4	-5	-41
CCC(=O)N(CCC(Cc1ccccc1)c1ccco1)Cc1ccco1 (stereo not given)	-0.3	-4	-3.9*	-10	-4	-10	30
C[C@H](NC(=O)c1nc[nH]c1C(=O)NC(c1ccccc1)c1ccccc1)C(=O)OC(C)(C)C	1.1	-2	-0.83	-4	-27	-4	16
O=C(Nc1ccccc1)c1nn(-c2ccccc2)c(=O)cc1C(F)(F)F	1.3	-14	0.17	10	-11	·	14
COCCCn1c(=N)c(C(=O)NCc2ccc3c(c2)OCO3)cc2c(=O)n3ccccc3nc21	-0.4	8	·	-6	-13	-10	-70
CC1(C)CCCC(C)(C)N1CC(O)COCCOc1ccc(Br)cc1 (stereo not given)	-0.1	-2	0.097	-2	-20	0	-1
CCc1cccc2c(C(=O)COC(=O)C3=NNC(=O)CC3)c[nH]c12	-0.8	0	0.73	-2	-18	1	-21
C=CCn1c(CCNC(=O)c2ccccc2F)nnc1SCC(=O)Nc1nc2ccccc2s1	-1.0	2	·	5	-11[20 µM]	·	10
COc1cc(N)n(S(=O)(=O)c2ccc(C)cc2)n1	1.2	4	1.8	1	-22	-5	-21
CC(C)CCn1nnnc1CN1CCN(c2ccccc2)CC1	1.4	-2	-1.1	-4	0	17	-25
CSc1nc(-c2ccco2)nn1S(=O)(=O)c1ccccc1	0.9	-24	-0.86	-5	10[20 µM]	·	13
COC(=O)Cc1cc(=O)[nH]c(/N=C(\N)Nc2ccc(C(C)C)cc2)n1	0.0	-2	-0.26	-13	-20	-6	-13
CCn1c(SCC(=O)c2ccc(OC)cc2)nnc1C(C)NC(=O)c1ccc(OC)cc1 (stereo not given)	-0.5	-9	·	14	-21[20 µM]	7	-1
O=[N+]([O-])c1cccc(/C=N/n2c(COc3ccccc3)n[nH]c2=S)c1	0.4	2	59*	-7	-21	-2	-13
COc1ccc(F)cc1C(=O)C1CCCN(Cc2ccc(Sc3nncn3C)o2)C1 (stereo not given)	0.2	-1	0.15	-12	-25	-6	-19
Cc1cc2c(c(=O)n1CCN(C)C)C(c1ccc(Br)cc1)C(C#N)=C(N)O2 (stereo not given)	0.9	-12	0.84	-9	-12	2	-20
CCn1c(CNC(=O)Cc2ccc(OC)cc2)n[nH]c1=S	0.0	-2	0.48	-6	-24	0	-25
COc1ccc(C2SC[C@@H](C(=O)O)N2C(C)=O)cc1 (stereo not given in full)	0.8	-26	0.22	2	-36[20 µM]	1	-6
COc1ccc(/C=C/C(=O)NC(=S)N2CCSCC2)cc1	-0.5	8	8.7*	-6	9	6	28
COc1ccc(S(=O)(=O)N(CCCN2CCOCC2)Cc2ccc(OC)c(OC)c2)cc1	-0.9	-10	·	6	-22	·	-31
CCN(CC)CCNc1nc2nonc2nc1NCCN(CC)CC	0.7	4	0.22	-1	-23	3	-2
CCC(=O)n1nc(-c2ccccc2)nc1N	1.0	-5	0.94	14	-12[20 µM]	7	-5
COc1ccc(-c2nc(SCc3ccccc3)n(C(=O)c3ccco3)n2)cc1	1.1	-20	·	4	-15[20 µM]	-4	14
CC(=O)c1c(C)[nH]c(C(=O)COC(=O)c2cc(S(=O)(=O)N(C)c3ccccc3)ccc2Cl)c1C	-0.5	-16	-1.3	-6	3	4	-5
CCSc1nnc2c(n1)[nH]c1c(C)cccc12	0.4	-15	·	-8	-1	-8	-3
CCOC(=O)c1cc(C#N)c(N2CCN(c3ccccn3)CC2)nc1-c1ccccc1	-0.1	-29	0.86	-4	-10	2	-3
CCCC(=O)OCC(=O)c1[nH]c(C)c(C(C)=O)c1C	-0.4	8	-0.25	-7	-20	12	12
COc1ccc(OCC(=O)Nc2cccc(C(C)=O)c2)cc1	1.3	1	0.69	-3	-22	·	-30
C=CCNC(=O)Nc1ccc2nc(C)sc2c1	0.3	14	·	2	-31	·	-26
COc1ccc(Nc2nc(-c3ccc(OC)cc3)c(CCC(=O)O)s2)cc1	2.1	2	-2.9	-7	-15	·	-20
CCN(CC)S(=O)(=O)c1cccc(NC(=O)COC(=O)C2COc3ccccc3O2)c1 (stereo not given)	0.9	-17	-1.4	-7	-19	1	-1
C=CCc1ccc(OCCCOc2ccc(C(=O)O)cc2)c(OC)c1	-0.5	0	-0.44	-3	-16	2	3
O=C(NCCc1ccccc1)Nc1ccc(Cl)cc1	0.3	-16	-0.81	-3	-6	8	8
COCCn1c(=NC(=O)CSC(C)=O)sc2cc(F)ccc21	0.5	-1	·	-5	-19[20 µM]	83*	39
Cc1cc(OCc2ccc(C(=O)n3cccn3)o2)ccc1Cl	0.9	-2	0.4	1	-18[20 µM]	-5	-36
CN1CCN(C(=O)CNc2ccc(C(F)(F)F)cc2[N+](=O)[O-])CC1	0.7	6	-0.66	-7	-21	-33	-14
Cc1ccccc1OCc1nc(-c2ccc(NC(=O)c3ccc4c(c3)OCO4)cc2)no1	0.3	-13	·	-8	-30	3	-55
O=c1oc(-c2ccccc2Cl)nc2ccsc12	0.2	-6	·	-5	-24[20 µM]	7	4
O=C1CC(c2ccc(F)c(Br)c2)C2=C(CCCC2=O)N1 (stereo not given)	1.1	9	-0.74	-5	-26	2	-8
COc1ccc(C2=NOC(C(=O)NCc3ccc(F)cc3)C2)cc1 (stereo not given)	2.1	0	-0.23	-4	-18	·	14
O=C1CCC/C(=N/NC(=O)c2ccc(NS(=O)(=O)c3cccs3)cc2)C1	0.2	-6	-0.58	-11	-10	-2	-4
Clc1ccc2oc3c(Cl)ncnc3c2c1	0.8	-16	-1.7	-4	-14	8	-6
O=S(=O)(Nc1cccc(C(F)(F)F)c1)c1cnc[nH]1	0.9	13	0.012	-5	-21	-4	-5
O=C(CSc1nc(-c2ccco2)cc(C(F)(F)F)n1)NCc1cccs1	0.7	10	0.39	-6	-9[20 µM]	-5	12
COc1ccc(-c2nnc(SCC(=O)Nc3cc(C)on3)n2C)cc1OC	0.7	23	0.86	17	-21[20 µM]	2	11
O=C(N/N=C/c1ccsc1)c1cc(-c2ccncc2)nc2ccccc12	-0.6	-3	-0.0056	0	-8	19	15
COc1cccc(OC)c1C1=NC(C)(C)CO1	0.2	2	-1.1	-3	-19	3	5
Nc1nncn1C(=O)c1cc(Br)ccc1Cl	0.2	32	·	24	-25[20 µM]	0	0
O=C1c2ccccc2C(=O)N1c1cccc(-c2nc3ccccc3o2)c1	1.1	-9	-0.29	4	-14[20 µM]	3	-3
CC1=C(C(=O)Nc2cccnc2)C(c2ccccn2)n2nnnc2N1 (stereo not given)	0.1	-20	1.9	-4	-11	-11	9
Cc1cc(C)n(C(=O)c2cc(F)c(F)cc2C)n1	-0.2	-2	-0.15	9	-25	16	-2
Cn1c(SCC(=O)c2ccc3c(c2)OCCO3)nnc1C(F)(F)F	-0.2	-5	-0.045	3	-14	11	-2
N#CC(c1cccc(C(F)(F)F)c1)(c1ncc(C(F)(F)F)cc1Cl)N1CCOCC1 (stereo not given)	0.4	3	0.95	-3	-15[20 µM]	4	-9
COc1ccc(C(=O)N2CCN(S(=O)(=O)c3ccc(Cl)cc3)CC2)cc1OC	-0.3	-15	0.58	-7	-2[20 µM]	-2	-4
Cc1nc2cc(F)ccc2n1C1CCN(C(=O)c2ccc(F)cc2F)CC1	-0.4	4	-0.1	-9	-23	5	-3

Remaining list, next part
SMILES	PERK inh	KLK5 inh	KCC2 mod	thrombin 1536	Furin inh	Rad51 HR inh	m-calpain inh
Clc1ccc(CNc2nnnn2-c2ccccc2)c(Cl)c1	-0.3	9	-0.64	2	1[20 µM]	-3	16
CCn1c(CNC(=O)c2ccc(OC)c(OC)c2)nnc1SCC(=O)c1ccc(OC)cc1	-0.2	-3	-0.11	6	-10[20 µM]	4	22
O=C(CSc1nc(-c2ccco2)cc(C(F)(F)F)n1)NCCN1CCOCC1	-0.6	23	1.5	4	-5	-6	1
O=C(O)c1cc2nc(-c3cccs3)cc(C(F)(F)F)n2n1	0.5	3	0.26	·	-8	7	-163
Cc1cc(C)c2nc(N3CCCN(C(=O)c4cnccn4)CC3)c(C#N)cc2c1	-0.2	-30	·	0	-10	-9	-3
COc1ccc(C(=O)NCc2nnc(SCC(=O)c3ccccc3)n2C)cc1	1.3	-14	-1	4	-18	24	-6
CCCc1cc(=O)oc2c(C)c(OCc3nn[nH]n3)ccc12	0.9	-3	-1.5	-3	-17	22	-47
COc1ccc(CC(=O)n2nc(-c3cccnc3)nc2N)cc1	0.3	-33	0.0096	90*	13[20 µM]	4	-13
CCN(CC)S(=O)(=O)c1cccc(C(=O)OCC(=O)Nc2ccc3c(c2)c2ccccc2n3CC)c1	0.1	-13	-0.088	-8	-3	-9	-16
Cc1ccc(/C=N/NC(=O)CNC(=O)COc2ccc(Cl)cc2)o1	1.2	-16	-0.34	-3	-19	5	-9

Structural class: the compounds so far with a Cl atom.
SMILES	PERK inh	KLK5 inh	KCC2 mod	thrombin 1536	Furin inh	Rad51 HR inh	m-calpain inh
CC(=O)c1c(C)[nH]c(C(=O)COC(=O)c2cc(S(=O)(=O)N(C)c3ccccc3)ccc2Cl)c1C	-0.5	-16	-1.3	-6	3	4	-5
O=C(NCCc1ccccc1)Nc1ccc(Cl)cc1	0.3	-16	-0.81	-3	-6	8	8
Cc1cc(OCc2ccc(C(=O)n3cccn3)o2)ccc1Cl	0.9	-2	0.4	1	-18[20 µM]	-5	-36
O=c1oc(-c2ccccc2Cl)nc2ccsc12	0.2	-6	·	-5	-24[20 µM]	7	4
Clc1ccc2oc3c(Cl)ncnc3c2c1	0.8	-16	-1.7	-4	-14	8	-6
Nc1nncn1C(=O)c1cc(Br)ccc1Cl	0.2	32	·	24	-25[20 µM]	0	0
N#CC(c1cccc(C(F)(F)F)c1)(c1ncc(C(F)(F)F)cc1Cl)N1CCOCC1 (stereo not given)	0.4	3	0.95	-3	-15[20 µM]	4	-9
COc1ccc(C(=O)N2CCN(S(=O)(=O)c3ccc(Cl)cc3)CC2)cc1OC	-0.3	-15	0.58	-7	-2[20 µM]	-2	-4
Clc1ccc(CNc2nnnn2-c2ccccc2)c(Cl)c1	-0.3	9	-0.64	2	1[20 µM]	-3	16
Cc1ccc(/C=N/NC(=O)CNC(=O)COc2ccc(Cl)cc2)o1	1.2	-16	-0.34	-3	-19	5	-9

Source: PubChem BioAssay

Only part of the results is shown, so the mix of outcomes need not match the whole.
